Screening data from PubChem BioAssay.
Proteasome disasm: blocks ATP-dependent breakdown of the yeast 26S proteasome; inhibition of disassembly, % (test concentration not listed); hit rate 0.2% among 24,000; anti-FLAG beads, GFP-proteasome disassembly, flow cytometry;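 active = above 40%; inconclusive = likely self-fluorescent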;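 note: plate controls were ATP control with full disassembly for no effect and ATP-gamma-S intact proteasomes for full effect; higher percent means more bead fluorescence retained so stronger block of disassembly; stock transfer was 100 nL into about 10 µL; wells with too few beads may also be inconclusive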
VCAM-1 rise: enhancers of VCAM-1 display on endothelial cells, cell-based, plate reader, pooled HUVEC, TNFa stimulus (AID 455); HUVEC TNFa-induced VCAM-1 immunofluorescence, plate reader; numbers were filed only for top-ranked candidate wells; augmentation, % at 5 µM; hit rate 0.2% among 10,000;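 active = a compound raising TNF-alpha-driven VCAM-1 surface staining, with its hit status upheld on visual or statistical review; inactive = the rest, including hits rejected on review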;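 note: 0% = TNFa with vehicle and 100% = strongest image-checked hit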
Starred values were filed as active, the others as inactive; i = inactive; ? = inconclusive; / = not tested or not shown. These rows are one share of the data; the hit share may differ from the screen's.

Values run as follows: Proteasome disasm, VCAM-1 rise
> CC(C)OCCCNC(=O)CN1C(=O)CC(C)(C)S(=O)(=O)c2ccccc21
  -1.7, /
> Cn1c(=O)[nH]c(=O)c2c1nc(N(CCO)Cc1ccccc1)n2CCCc1ccccc1
  -1.1, /
> CCCCN1CN(S(=O)(=O)c2cccs2)c2nc3ccccc3nc21
  -5.6, i
> COc1ccc(-c2cc(C(=O)Nc3cnn(Cc4ccccc4C)c3)no2)cc1OC
  -2.4, /
> CCCCCC1CC(=O)N(Cc2ccc(Cl)cc2)C(=O)N1 (configuration not stated)
  -0.4, /
> COc1cccc(-c2nnn(CC(=O)O)n2)c1
  0.2, i
> Cc1cc(=O)n(-c2ccc3ccccc3n2)[nH]1
  -2.1, i
> CCC(C)NC(=O)CCC(=O)Nc1ccc2nc(N3CCOCC3)cc(C)c2c1 (configuration not stated)
  -0.9, /
> O=C(Nc1ccc(C(F)(F)F)cc1)C1CCCN1S(=O)(=O)c1cccc2cccnc12 (configuration not stated)
  -0.2, /
> N#Cc1nc(-c2ccc(F)cc2)oc1NCCN1CCOCC1
  -1.0, /
> O=C(O)c1ccc(S(=O)(=O)Cc2ccccc2)cc1
  -3.8, i
> COc1ccc(OC)c(-c2nnc(SCC(=O)NC3CCCCC3)o2)c1
  -0.4, i
> COc1ccc(NC(=O)CSc2nc3c(c(=O)n2-c2ccc(F)cc2)SCC3)c(OC)c1
  -0.4, i
> C=C(C)Cn1c(CCNC(=O)C(C)(C)C)nc2ccccc21
  0.6, /
> COc1ccc2c(c1)C(=NO)c1cc(OC)ccc1-2
  -0.8, i
> CCn1c(=O)n(CC(=O)NCc2ccccc2OC)c(=O)c2ccccc21
  0.9, i
> CCc1ccc2nc(NC(=O)CSCc3c(C)noc3C)sc2c1
  -1.6, i
> CC1CCN(C(=O)c2scc3c2OCCO3)CC1
  -2.0, /
> COc1ccc(C(=O)NCc2nnc(SC)n2C2CCCCC2)cc1
  0.0, i
> COc1ccc(NC(=O)C(C)NS(=O)(=O)c2ccc(NC(C)=O)cc2)cc1Cl (configuration not stated)
  0.8, i
> O=C(c1ccco1)N1CCN(C(=O)c2cc3c(=O)oc4ccccc4c3s2)CC1
  0.7, /
> COc1ccc(C2/C(=C(/O)c3ccc(OC(C)C)cc3)C(=O)C(=O)N2CCCN2CCOCC2)cc1 (configuration not stated)
  -0.8, i
> COc1ccc(Cl)cc1NC(=O)C1CCCN(S(=O)(=O)c2cccc3nonc23)C1 (configuration not stated)
  3.0, /
> CCN(CC)C(=O)Cn1ncc2c1-c1ccccc1OC2
  -0.5, i
> CCOCCCNC(=O)C(c1ccccc1)N(Cc1ccc2c(c1)OCO2)C(=O)CNC(C)=O (configuration not stated)
  -0.5, i
> CCc1ccccc1NC(=O)c1onc(C)c1Cl
  -1.4, /
> CC1CCCC(C)N1C(=O)c1cc(-c2ccc(Cl)c(Cl)c2)on1 (configuration not stated)
  -0.9, /
> O=C(CCn1c(=O)oc2ccccc21)NCc1cccs1
  -0.9, /
> CCCc1cc(C(=O)NCc2ccco2)no1
  -0.4, /
> C=CCN=C1CC(C)(C)CC(=O)/C1=C(/O)CCC(=O)OC
  -1.0, /
> c1ccc(CCc2nn3c(Cn4cnc5ccccc54)nnc3s2)cc1
  -1.4, i
> COc1cccc(-n2nnc3c(=O)n(Cc4c(F)cccc4Cl)cnc32)c1
  -8.8, /
> COC(=O)C1=C(C)NC(=O)C1(NC(=O)c1cccnc1)C(F)(F)F (configuration not stated)
  -1.0, i
> COc1ccc(NC(=O)Cn2cnc3c(cnn3-c3ccc(C)c(C)c3)c2=O)c(OC)c1
  -0.1, /
> Cc1oc2ccc(OCC(N)=O)cc2c1C(=O)OC(C)C
  -0.4, /
> CCCCCn1c(CN2CCN(c3cccc(Cl)c3)CC2)nc2c1c(=O)n(C)c(=O)n2C
  -1.7, i
> Cc1ccc2cccc(O)c2[n+]1[O-]
  -8.1, /
> CC(C)(C)NC(=O)C(Cc1ccccc1)NS(=O)(=O)c1cccc2nsnc12 (configuration not stated)
  -0.1, i
> O=C(NCCc1ccccc1)C1CCCN(S(=O)(=O)c2cnc[nH]2)C1 (configuration not stated)
  1.6, /
> O=C(NCCc1c[nH]c2ccccc12)c1ccc(S(=O)(=O)NCc2ccco2)cc1
  4.7, i
> c1ccc(-c2nc3ccccc3o2)nc1
  0.4, /
> CN(c1ccccc1)C(c1ccc(F)cc1)c1nnnn1CC1CCCO1 (configuration not stated)
  -2.6, i
> COc1ccccc1Nc1ccc(C(=O)NC2CCCCC2)cn1
  -0.1, i
> O=C(Cn1cc2c(n1)CCCCC2)NCCN1CCOCC1
  -1.0, /
> O=C1c2ccccc2-c2nc3ncnn3c(-c3ccccc3Cl)c21
  -0.8, /

A different layout for some results above:
| SMILES | Proteasome disasm | VCAM-1 rise |
| --- | --- | --- |
| COc1cccc(-n2nnc3c(=O)n(Cc4c(F)cccc4Cl)cnc32)c1 | -8.8 | / |
| O=C(Cn1cc2c(n1)CCCCC2)NCCN1CCOCC1 | -1.0 | / |

The list goes on.
Values run as follows: Proteasome disasm, VCAM-1 rise
> O=C(O)CC1SC(=Nc2cccc(O)c2)NC1=O (configuration not stated)
  -0.8, /
> COc1ccccc1-c1c(C)nn2c(N3CCN(c4ccccc4OC)CC3)cc(C)nc12
  -0.2, /
> C=CCSc1nc(N)c(C(=O)Nc2ccccc2C)cc1C(N)=O
  1.9, i
> CC(C)COC(=O)NCCCOC(=O)Nc1ccccc1
  0.1, /
> COc1ccc(NC(=O)c2cc(C(C)C)on2)cc1OC
  -1.2, /
> COc1ccccc1NS(=O)(=O)c1cccc2cccnc12
  -2.0, /
> Oc1cc(NCc2cccnc2)ccc1-c1nc2ccccc2o1
  -3.6, i
> COc1cc(C2C(C#N)=C(N)Oc3n[nH]c(-c4ccncc4)c32)cc(OC)c1OC (configuration not stated)
  -0.8, /
> O=C(Cn1cnc2c(nnn2Cc2ccc(F)cc2)c1=O)NC1CCCC1
  0.0, /
> CC(C)CN(CC(C)C)S(=O)(=O)N1CCC(C(=O)NCc2ccccn2)CC1
  0.7, /
> CC1(C)CC(=O)C(C=NCCN2CCNC2=O)=C(O)C1
  0.4, /
> O=C(NC(C(=O)c1ccccc1)n1ccc(=O)[nH]c1=O)c1ccccc1 (configuration not stated)
  2.1, i
> COc1cc(C(=O)Nc2cc(C)ccn2)cc(OC)c1OC
  1.5, i
> O=C(CSc1ncccn1)NCc1ccccc1
  1.0, i
> CC1CCC(NC(=O)C2c3ccccc3C(=O)N2CCCN2CCOCC2)CC1 (configuration not stated)
  0.5, /
> Cc1cc(N)n2nc(-c3ccccc3)cc2n1
  1.3, i
> CC(=O)Nc1ccccc1OCC(=O)c1cc(C)n(Cc2cccs2)c1C
  -0.8, i
> COc1cc2ccccc2cc1C(=O)Nc1ccc(S(=O)(=O)Nc2cc(C)on2)cc1
  -1.2, /
> c1ccc2ncc(-n3cnnn3)cc2c1
  2.1, i
> O=C(Oc1ccc(Cl)cc1N1C(=O)CCC1=O)c1ccco1
  1.4, i
> CCOc1c(OC)cccc1C1CC(=O)Nc2cc(OC)c(OC)cc21 (configuration not stated)
  0.3, /
> CCn1c(=O)cc(OCC(=O)NC2CCCCC2)c2ccccc21
  1.5, i
> Cc1cc(C)n(-c2ccc(N3CCOCC3)nn2)n1
  -2.0, i
> COc1ccc(NC(=O)CCS(=O)(=O)c2ccc(OC)cc2)cc1
  -2.0, i
> CCOC(=O)c1cccc(NC(=O)CCc2nc(-c3ccc(C)cc3)no2)c1
  -0.6, /
> Cc1cccc(N2CCN(C(=O)C3CCN(S(=O)(=O)c4cnc[nH]4)CC3)CC2)c1C
  0.2, /
> CCOC(=O)CNC(=O)c1c(C)nn(-c2ccccc2)c1Cl
  0.7, i
> O=C(c1ccc(S(=O)(=O)N2CCCCC2)cc1)N1CCN=C1SCc1cccnc1
  -2.0, /
> COc1ccc(N2CCC(CNS(=O)(=O)c3cccc(C(F)(F)F)c3)C2)cc1 (configuration not stated)
  -2.5, i
> Cc1cc(Nc2ccc(Cl)cc2)n2nnnc2n1
  1.3, /
> CCOC(=O)c1c(C)[nH]c(C=Nc2ccccc2)c1O
  -3.3, i
> Cc1ccc(F)cc1NC(=O)c1c(-c2ccccc2)noc1C
  -0.2, /
> COc1ccc(-n2nnc3c(SCC(=O)NCC4CCCO4)ncnc32)cc1 (configuration not stated)
  ?, /
> Cc1ccc(-n2c(=O)[nH]cc(C(=O)N3CCc4ccccc43)c2=O)cc1
  -2.3, /
> CCOC(=O)c1cccc(N2C(N)=NC(N)=NC2(C)C)c1
  ?, /
> CCOC(=O)c1cc(-c2ccc(F)cc2)n(CC(=O)N2CCCC2)c1C
  -1.1, /
> CCC(C(=O)OC)n1cnc2c(nnn2-c2ccc(OC)cc2)c1=O (configuration not stated)
  -2.6, /
> CCOC(=O)Cn1c(=O)c(-c2ccccc2N)nc2ccccc21
  -0.3, i
> Nc1ccc2cn[nH]c2c1
  -0.4, i
> CCOc1ccc(-n2c(SCC(=O)NCc3ccco3)nc3c(c2=O)SCC3)cc1
  1.4, /
> C1=Nc2c(NCc3ccccc3)ncnc2Oc2ccccc21
  2.2, i
> COC(=O)C1C(=O)c2c([nH]c(C(=O)OCCSC)c2C)CC1C (configuration not stated)
  -0.9, /
> CC1(C)N=C(c2ccc(Cl)cc2Cl)C(=O)N1
  0.5, /
> CCOC(=O)N1CCC(N(CCOC)C(=O)Nc2ccc(CC)cc2)CC1
  -0.2, /
> Cc1ccc(-n2c(C)nc3c(cnn3-c3ccc(F)cc3)c2=O)cc1
  -0.8, /
> CCOC(=O)c1[nH]c(C)c(C(=O)Nc2ccc3c(c2)OCCO3)c1C
  2.1, /
> COC(=O)c1ccccc1NC(=O)c1noc2c1CCCC2
  -1.1, /
> COc1ccc(N2CCN(c3oc(COc4ccccc4Cl)nc3C#N)CC2)cc1
  -1.6, i
> O=C(CN1CCOCC1)Nc1ccc(-c2nc3ccccc3[nH]2)cc1
  -1.1, /
> O=C(NCc1ccccn1)C(C(=O)c1ccc(F)cc1)n1ccccc1=O (configuration not stated)
  -1.0, i
> Fc1ccccc1Cn1nnc2c(-n3ccnc3)ncnc21
  1.3, i
> CC1=CC2=C(OC1N(C)C)c1cccc3cccc(c13)C2=O (configuration not stated)
  -1.1, i
> O=C(Nc1nc2ccccc2n1CCOc1ccc(Cl)cc1)c1ccco1
  0.1, /
> COc1ccccc1NC(=O)CSc1nnc(Cn2nnc(-c3ccccc3)n2)n1-c1ccccc1
  0.5, i
> O=C(Nc1cccnc1)c1noc2c1CCCCC2
  -0.8, i
> Cn1c(=O)oc2cc(S(=O)(=O)N3CCCC(C(=O)NCc4ccc5c(c4)OCO5)C3)ccc21 (configuration not stated)
  -1.4, /
> CC(c1ccccc1)n1cnc2ccccc21 (configuration not stated)
  1.2, i
> COc1ccccc1N1CCN(C(=O)c2cc3c(-c4ccc(Cl)cc4)nn(C)c3s2)CC1
  0.0, /
> Cc1cnc(NC(=O)CSc2nnc(COc3c(C)cccc3C)o2)s1
  -0.5, i
> CC(C)OC(=O)c1ccc(OC(=O)c2cccnc2)cc1
  0.8, i

Further results
Values run as follows: Proteasome disasm, VCAM-1 rise
> CCOC(=O)Cn1c(=O)oc2cc(S(=O)(=O)N(CCN(C)C)Cc3ccccc3)ccc21
  0.2, /
> CCOC(=O)CNS(=O)(=O)c1c(C)noc1C
  -1.0, i
> COc1ccc(C2C=C(c3cccs3)Nc3nc(CCCO)nn32)cc1 (configuration not stated)
  8.3, /
> COc1cc(Nc2cc(C)nc3ncnn23)cc(OC)c1OC
  -1.2, i
> Nn1c(SCC(=O)Nc2ccc3c(c2)OCCO3)nnc1C(F)(F)F
  1.5, i
> Cc1c(C(=O)OC2CCCC2)[nH]c2c1C(=O)CC(c1ccco1)C2 (configuration not stated)
  2.9, /
> CCCS(=O)(=O)N1CCn2c(nc3ccccc32)C1
  0.8, /
> CCCCOc1ccc(C(=O)Nc2ccc(N3CCN(C(C)=O)CC3)cc2)cc1
  -2.0, i
> O=C(Nc1nc2ccccc2[nH]1)c1ccc(F)cc1
  3.3, /
> COc1ccc(NC(=O)CN2CCN(S(=O)(=O)c3ccc(F)cc3)CC2)cc1Cl
  0.3, /
> CC(C)CC1NC(=O)N(CC(=O)N2CCN(S(=O)(=O)c3ccc(Cl)cc3)CC2)C1=O (configuration not stated)
  -0.6, i
> O=C(O)CCn1c(=O)c2ccccc2c2ccccc2c1=O
  -0.8, i
> Cc1oc(-c2ccccc2F)nc1CSCC(=O)NCc1ccc2c(c1)OCO2
  -1.1, /
> CN(C)CCNC(=O)Cn1nc(-c2ccc(Cl)cc2)ccc1=O
  0.8, /
> NC(=O)C1(N2CCCCC2)CCN(Cc2ccccc2Cl)CC1
  1.5, i
> CCOC(=O)CNC(=O)Cn1cnc2c(nnn2-c2ccc(C)cc2)c1=O
  1.2, /
> CC(=O)N1CCCc2cc(S(=O)(=O)NCCC3=CCCCC3)ccc21
  -2.7, /
> CCCCNC(=O)CC(=O)Nc1ccccc1C(=O)O
  1.3, /
> Cn1c(=O)cc(SCC(=O)N2CCN(c3ccccn3)CC2)c2ccccc21
  -2.5, /
> CCc1ccc(NC(=O)CSc2nnc(CNC(=O)c3c(F)cccc3Cl)o2)cc1
  -0.3, /
> Cc1ccc(-c2nc(CS(=O)CC(=O)NC3CCC(C)CC3)c(C)o2)cc1 (configuration not stated)
  0.4, /
> COc1ccc(Cc2nc(-c3cccs3)no2)cc1OC
  3.1, /
> COc1ccc(NC(=O)c2ocnc2C)cc1OC
  -1.2, /
> CN(Cc1ccccc1)C(=O)c1cnc2n(c1=O)CCS2
  0.7, /
> CC(=O)OCC1OC(n2ccc(=O)[nH]c2=O)C(O)C1O (configuration not stated)
  0.5, /
